High-throughput results from PubChem BioAssay.
ALR H2O2 inh: human ALR oxidase inhibition via reduced H2O2. P55789. purified ALR, DTT oxidation, H2O2 HRP-luminol luminescence. inhibition, % (test concentration not listed). 290,000 tested, 3.8% active. AID 485317;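 active = mean and each replicate at 75% or more; inconclusive = only one of the two met; inactive = neither met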;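 note: stock transfer was 7.5 nL into about 7.5 µL; 0% = neutral wells and 100% = wells with inactivated enzyme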
Target sequence (P55789 whole entry, looked up): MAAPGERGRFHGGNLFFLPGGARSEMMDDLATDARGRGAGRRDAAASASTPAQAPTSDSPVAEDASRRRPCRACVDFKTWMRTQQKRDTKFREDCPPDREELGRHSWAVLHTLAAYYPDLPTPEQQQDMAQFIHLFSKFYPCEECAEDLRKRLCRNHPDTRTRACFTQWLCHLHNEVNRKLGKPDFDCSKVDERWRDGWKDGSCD
B2AR ag: human beta-2 adrenergic receptor agonism by FAP | 340,000 tested, 0.43% active | Am2.2-beta2AR cells, FAP receptor internalization, flow cytometry; reference of the scale not given here | AID 504454 | response, % (concentration not given with the values);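 active = response above a set limit, near 3 SD of response in nonfluorescent compounds, cut at about 42% in these data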;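 note: stock transfer was 100 nL into about 11 µL; a reference agonist was the positive control; negative values mostly stem from fluorescent compounds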
Target sequence (P07550 whole entry, looked up): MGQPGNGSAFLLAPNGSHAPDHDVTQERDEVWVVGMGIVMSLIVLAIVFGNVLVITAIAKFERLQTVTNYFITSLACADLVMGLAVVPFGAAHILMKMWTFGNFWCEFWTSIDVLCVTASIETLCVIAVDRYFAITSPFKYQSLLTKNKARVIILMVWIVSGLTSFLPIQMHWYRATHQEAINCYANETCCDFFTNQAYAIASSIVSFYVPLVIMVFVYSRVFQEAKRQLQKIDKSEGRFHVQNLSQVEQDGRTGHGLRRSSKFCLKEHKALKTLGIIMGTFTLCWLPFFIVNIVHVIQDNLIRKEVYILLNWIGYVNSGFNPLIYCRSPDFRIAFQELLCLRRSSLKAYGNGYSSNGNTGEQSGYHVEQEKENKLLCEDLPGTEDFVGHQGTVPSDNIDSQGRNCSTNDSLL
Vif TR-FRET: HIV-1 Vif–A3G interaction blockers – biochemical, TR-FRET, GST-Vif 1-94, biotin-A3G peptide, dose response retest, primary screen (AID 1117319); TR-FRET GST-Vif / biotin-A3G peptide binding; higher % means a stronger effect; test concentration not given here; strong numbers were not always called active; inhibition, %, or IC50 in µM where a hit was titrated; 260,000 tested, 0.57% active;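 active = above the screen mean plus three standard deviations and confirmed in dose response; inconclusive = results disagree or hit not tested in dose response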;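 note: Vif residues 1-94 fused to GST binding biotinylated APOBEC3G peptide 110-148; 0% = full assay without inhibitor and 100% = GST in place of GST-Vif; retest series ran down from 100 µM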
HNF4A DNA FP: change in binding of human HNF4 alpha to DNA | AID 1224865 | P41235 | HNF4a-FITC DNA binding, fluorescence polarization, 1 h | activity change, % at 10 µM | 360,000 tested, 0.3% active; in the data active = activity change above about 30%, passing the limit was not always enough;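 note: controls were the assay level and a saturating level of protein; the project sought stronger binding though the title names inhibitors; some compounds called inactive have numbers as strong as hits; positive values seem to mean higher polarization but the record does not say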
Target sequence (P41235 whole entry, looked up): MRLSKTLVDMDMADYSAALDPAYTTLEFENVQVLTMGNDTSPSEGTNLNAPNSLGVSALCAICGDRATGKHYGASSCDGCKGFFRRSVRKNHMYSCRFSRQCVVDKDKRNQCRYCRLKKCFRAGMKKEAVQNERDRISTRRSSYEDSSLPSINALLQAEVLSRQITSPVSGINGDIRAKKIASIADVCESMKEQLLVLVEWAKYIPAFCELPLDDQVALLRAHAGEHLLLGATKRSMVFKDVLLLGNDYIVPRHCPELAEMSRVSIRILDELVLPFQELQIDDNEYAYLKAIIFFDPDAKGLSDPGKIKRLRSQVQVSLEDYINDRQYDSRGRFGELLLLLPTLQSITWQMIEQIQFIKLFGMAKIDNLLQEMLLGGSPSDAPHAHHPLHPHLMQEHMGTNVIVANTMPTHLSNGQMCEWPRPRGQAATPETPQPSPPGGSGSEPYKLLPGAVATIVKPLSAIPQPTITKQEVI
RanGTP-Impb inh: disruptors of Ran-importin-beta complex formation – biochemical, FRET, CFP-Ran, YFP-importin-beta, homogeneous, primary screen | cell-free CFP-Ran/YFP-importin-beta FRET ratio | AID 2216 | 300,000 tested, 1.1% active | inhibition, % (test concentration not listed);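 active = most replicates above 15%; inconclusive = exactly half above 15%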;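 note: 0% = DMSO wells and 100% = Ran loaded with GDP instead of GTP; wells of about 40 µL received 100 nL stock; the first replicate is given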
LANA-H2A inh: blocks KSHV LANA binding to histone H2A/H2B. inhibition, % (no concentration beside the values). cell-free LANA-H2A/H2B peptide, fluorescence polarization. Q9QR71. AID 2629. 320,000 tested, 0.6% active; in the data active = inhibition mostly above about 10%, no sharp cut-off; inactive = mostly below about 6.7%;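 note: stock transfer was 7.5 nL into about 10 µL; 0% = median of vehicle wells and 100% = median of positive control wells; one replicate is shown; the record names a cut of 25% in any replicate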
Calb FLC: affects C. albicans growth with fluconazole; C. albicans CaCi-2 (fluconazole-resistant clinical isolate) + fluconazole, Alamar Blue growth, 48 h; growth inhibition, % (test concentration not listed); 300,000 tested, 0.57% active; AID 1979;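 active = most replicates above 75%; inconclusive = exactly half above 75%; inactive = most below 75%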;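 note: all wells also contain fluconazole at 8 µg/ml as a sub-toxic cotreatment; 0% = median of DMSO wells and 100% = median of geldanamycin control wells; wells of about 8 µL received 7.5 nL stock; the first replicate is given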
An asterisk follows results filed as active; u = inconclusive; x = not tested or not shown; & = joins results of further samples.

SMILES	ALR H2O2 inh	B2AR ag	Vif TR-FRET	HNF4A DNA FP	RanGTP-Impb inh	LANA-H2A inh	Calb FLC
CCCC(=O)Nc1ccc2c(c1)c1ccccc1n2CC	6	-4	-5%	0.4	u	0.8	11
O=C(c1cnn2c(C(F)(F)F)cc(-c3ccco3)nc12)N1CCc2ccccc2C1	44	6	30%	9.1	7.0	-5.0	2
C#CCCc1ccccc1/C=[N+](/C)[O-]	-11	-4	x	1.9	x	-0.2	x
O=C(CSc1nc(C2CC2)nc2ccccc12)N1c2ccccc2Sc2ccc(C(F)(F)F)cc21	u	2	-8%	-1.4	-3.4	0.8	-4
COc1ccccc1CNC(=O)COC(=O)COc1ccccc1Cc1ccccc1	x	-4	0%	-0.3	-3.7	0.0	3
O=C(N/N=C/c1ccc2c(c1)OCO2)c1ccc(Cl)cc1Cl	-2	1	x	1.9	1.9	-3.0	-3
NC(=S)N=Nc1c(O)n(CC(=O)Nc2ccccc2)c2ccccc12	0	8	-6%	-1.6	-2.8	-0.5	16
CCOC(=O)Nc1cc2c(C)cc(=O)oc2cc1C	1	-17	-7%	2.9	0.6	-9.9	1
COc1ccc(OC)c(S(=O)(=O)N2CCC(C(=O)NCc3ccncc3)CC2)c1	-29	0	x	1.4	6.3	3.3	0
O=C(/C=C/c1ccc(O)c(O)c1)O[C@@H]1C[C@](O)(C(=O)O)C[C@@H](O)[C@H]1O	100*	-7&-4	x	0.3&2.3	-0.4	-3.7&1.1	x
CCOC(=O)c1ccc(N2C(=O)CC(SCC(N)C(=O)OCC)C2=O)cc1 (stereo not given)	0	-4	12%	-3.2	3.7	-0.9	-3
Nn1c(SCC(=O)N2CCN(S(=O)(=O)c3ccc(Cl)cc3)CC2)nnc1-c1cccs1	-12	-6	0%	-5.0	-0.9	5.3	-2
CN(c1ccccc1)S(=O)(=O)c1ccc(NC(=O)C2CC2)cc1	38	-5	5%	-5.7	2.9	-6.0	9
COc1cc(NC(=O)CSc2nnnn2-c2ccccc2)cc(OC)c1OC	0	2	-4%	-1.9	4.4	-0.6	-1
Cc1ccc(C(=O)N/C(=C\c2ccco2)C(=O)NCCCn2ccnc2)cc1C	11	-8	-8%	-1.4	1.4	4.3	45
C=CCNC(=O)c1ccc2nc(-c3ccccc3)c(-c3ccccc3)nc2c1	-5	-8	-4%	0.0	1.4	-6.0	-3
COc1ccc2[nH]c3c(c2c1)CCN1C(=O)C(CC(=O)NCc2ccc(OC)c(OC)c2)C[C@H](C(=O)N2CCOCC2)[C@@]31CCC1CCCC1 (stereo not given in full)	x	-7	-7%	1.3	x	x	x
CCN(CC)CCn1c2c(c(SCC(=O)Nc3nc(C)cs3)nc1=O)CCCC2	98*	2	-2%	1.1	1.3	-1.9	0
Cc1ccc(NC(=O)CCC(=O)NNC(=O)COc2cccc3ccccc23)c(C)c1	-7	-6	79%	0.4	-3.4	-1.8	-13
CSc1ccc(S(=O)(=O)Nc2ccccc2C(=O)N2CCOCC2)cc1	33	4	-7%	0.6	-3.5	3.8	4
Cc1cccc(OC(=O)c2cccnc2)c1C	-19	-2	x	-0.1	-2.6	3.0	4
CCOc1ccc(S(=O)(=O)NCCC(=O)NCC(c2ccc(OC)cc2)N2CCCCC2)cc1 (stereo not given)	0	9	-8%	4.3	1.5	0.1	3
CC(=O)Nc1ccc(S(=O)(=O)NNC(=O)COc2cc(C)ccc2C(C)C)cc1	99*	-2	5%	0.4	-1.9	-7.8	0
CN(Cc1ccccc1)C(=O)CN1CCN(C(c2ccccc2)c2ccccc2)CC1	-4	7	-12%	3.8	-1.5	5.3	0
COc1cc(NC(=O)c2cccc3c2C(=O)N(Cc2cccnc2)C3)cc(OC)c1OC	-4	4	-2%	2.2	-2.4	-6.7	2

(listing goes on)
SMILES	ALR H2O2 inh	B2AR ag	Vif TR-FRET	HNF4A DNA FP	RanGTP-Impb inh	LANA-H2A inh	Calb FLC
O=C(c1ccco1)N1CCN(C(=O)c2ccccc2OC(=O)C23CC4CC(CC(C4)C2)C3)CC1	x	-11	-2%	-3.7	3.6	x	19
O=C(Nc1cccc(S(=O)(=O)N2CCCCC2)c1)c1ccc2c(=O)n3c(nc2c1)CCCCC3	-6	8	73%	-0.9	3.9	-6.1	7
COc1cccc(NC(=O)Nc2ccc(CC(=O)O)cc2)c1	0	3	26%	1.0	1.7	-0.4	9
S=C1NCCN1CC1CCN(CC2CCCC2)CC1	x	-3	-2%	0.7	x	x	x
Cc1cc(C)cc(NC(=O)CS(=O)(=O)c2cccc3nsnc23)c1	x	16	-7%	0.3	3.6	-2.2	1
CCCCCCCc1ccc(C2NC(=S)NC3=C2C(=O)c2ccccc23)cc1 (stereo not given)	8	x	-3%	x	-2.6	1.4	2
COc1ccc(NC(=O)C(C)NS(=O)(=O)c2ccc(NC(C)=O)cc2)cc1Cl (stereo not given)	u	-1	16%	1.4	1.8	1.8	-2
Cc1nc(-c2ccccn2)nc(N2CCOCC2)c1Cl	18	-17	x	1.6	-1.7	2.5	-5
CC1CCCN(C(=O)C(=O)c2cn(CC(=O)N3CCCCCC3)c3ccccc23)C1 (stereo not given)	-1	4	x	-4.1	8.0	3.1	-6
CCc1ccc(C(=O)OCC(=O)NCCNC(=O)COC(=O)c2ccc(CC)cc2)cc1	-3	3	x	4.9	2.7	1.3	-3
CN(C)S(=O)(=O)c1ccc(C(=O)OCn2nnc3ccccc3c2=O)cc1	x	7	-2%	0.5	-0.1	-0.1	1
CC(=O)Nc1ccc(CN2CCN(CCc3ccccc3)C(CCO)C2)cc1 (stereo not given)	-5	-1	1%	-0.9	u	-0.3	14
Cc1ccc(C(=O)n2c(N)nc3ccccc32)cc1	-32	-7	x	-0.3	-5.2	1.4	5
CC1(C)CC(=O)c2cc(C(=O)NC3CCSC3=O)c(=O)n(-c3ccc(Cl)cc3)c2C1 (stereo not given)	2	5	u	1.2	5.2	0.0	-8
Cc1cc(N)c(C)c([N+](=O)[O-])c1C	5	-5	x	-3.0	-1.5	-1.4	3
COCCn1c(=S)[nH]c2cc(OC)c(OC)cc2c1=O	30	8	2%	-1.2	0.5	0.6	22
COC(=O)c1c(-c2ccc(Br)cc2)noc1N	0	3	-1%	-4.1	4.6	-4.8	8
COC(=O)c1cc(NC(=O)CN2CCC(C(N)=O)(N3CCCCC3)CC2)cc(C(=O)OC)c1	0	-5	12%	2.5	u	-7.3	-3
Clc1ccc(Cl)c(OCCCCNCc2ccccc2)c1	-9	46*	27%	5.4	2.8	-0.7	-8
O=c1[nH]cnc2onc(-c3ccc(F)cc3)c12	12	1	-2%	4.1	u	4.7	18
O=C(c1ccc(F)cc1)N1CCC(C(=O)N(Cc2ccccc2)c2ccccc2)CC1	0	3	92%	-3.9	x	-5.0	x
Cc1ccc(NC(=O)Cn2cnc3c(OCc4ccccc4)ncnc32)cc1C	x	-10	4%	0.6	x	-2.9	x
CN(C)CCNc1ccc(CO)c2oc3ccc(O)cc3c(=O)c12	x	-9	-3%	7.2	x	x	x
COc1cc(OC)c2c(-c3cccc(-c4ccoc4)c3)cc(=O)oc2c1	x	-2	6%	0.2	x	x	x
CSCC(C)N1CCC(CO)(CCc2ccccc2)CC1 (stereo not given)	-21	0	x	3.4	2.8	1.2	1

Shown in markdown: 2 of the compounds above.
| canonical_smiles | ALR H2O2 inh | B2AR ag | Vif TR-FRET | HNF4A DNA FP | RanGTP-Impb inh | LANA-H2A inh | Calb FLC |
| --- | --- | --- | --- | --- | --- | --- | --- |
| COc1cc(OC)c2c(-c3cccc(-c4ccoc4)c3)cc(=O)oc2c1 | x | -2 | 6% | 0.2 | x | x | x |
| CSCC(C)N1CCC(CO)(CCc2ccccc2)CC1 (stereo not given) | -21 | 0 | x | 3.4 | 2.8 | 1.2 | 1 |

(further entries)
SMILES	ALR H2O2 inh	B2AR ag	Vif TR-FRET	HNF4A DNA FP	RanGTP-Impb inh	LANA-H2A inh	Calb FLC
Cc1ccc(N(CC2CO2)S(=O)(=O)c2ccccc2[N+](=O)[O-])cc1 (stereo not given)	-3	-5	5%	0.2	2.7	-0.6	-2
COC(=O)c1ccccc1Oc1cnc2ccccc2n1	x	3	4%	1.3	9.0	1.4	7
O=C(Cc1ccsc1)NCC(=O)Nc1ccccc1Br	x	3	x	0.6	x	-3.4	x
COc1ccc([C@H]2CC(=O)C=C(c3ccc(F)cc3OCc3ccccc3)C2)cc1OC	0	8	x	-4.3	x	3.1	x
C[C@@H](C(=O)NCCCCCC(=O)O)n1nnc2ccccc2c1=O	0	4	-2%	-2.0	3.1	5.7	1
CCOC(=O)C1CCN(C(=O)CCS(=O)(=O)c2ccc3c(c2)CC(C)N3C(=O)CC)CC1 (stereo not given)	1	-8	-6%	2.9	-0.3	4.1	-4
COc1ccc(Nc2nc(-c3cccs3)cs2)cc1	-15	x	7%	x	-3.1	3.5	-1
Cc1ccc(-n2c(N)cc(=O)nc2SCC(=O)NC2CCCCC2)cc1C	7	6	x	-0.9	5.7	-0.6	22
CCCN(CC(=O)Nc1ccccc1OC)C(=O)CC1CCCC1	-8	12	-2%	2.5	x	-1.1	x
O=C(Nc1nnc(C2=COCCO2)o1)c1ccc(Cc2ccccc2)cc1	46	4	x	-1.7	-0.4	-1.9	11
Cc1ccc(F)cc1NC(=O)CN1C(=O)NC(C)(c2ccc3c(c2)OCCO3)C1=O (stereo not given)	-2	-1	-17%	3.5	x	-1.2	x
CC(=O)N(C)c1cccc([N+](=O)[O-])c1	-16	-12	x	-2.5	-0.1	-3.1	-3
COc1cc(-c2c(C(C)=O)c(C)nc3c2C(=O)c2ccccc2-3)cc(OC)c1OC	x	-6	x	0.6	-7.7	x	-6
CCOc1ccc(NC(=O)CN(C)C(=O)CCNC(=O)c2ccccc2Cl)cc1OCC	-4	-8	-3%	2.1	4.7	-0.6	6
c1ccc(Nc2ncnc3[nH]ncc23)cc1	-3	1	9%	5.7	1.2	1.3	-4
Cc1ccc(NC(=S)N2CCC(NC(=O)c3ccc(C)cc3)CC2)cc1	-1	-2	-2%	2.9	-5.2	7.5	-9
CS(=O)(=O)N1CCN(c2ccc(NC(=O)Cc3ccccc3)cc2)CC1	-17	-1	0%	1.8	3.8	6.2	4
COc1cc(OC)c(OC)cc1/C=C1\SC(N2CCCCC2)=NC1=O	-13	0	2%	2.5	-19	1.0	-5
CCOC(=O)N1CCN(C(=O)c2cnn3c(C(F)F)cc(-c4ccc(C)cc4)nc23)CC1	-11	-1	16%	-5.5	-2.9	-5.8	1
N#CC1=C(N)C(C#N)(C#N)[C@H](c2ccncc2)[C@H]2CN(C(=O)OCc3ccccc3)CC=C12	36	10	26%	5.8	11	-0.2	17
Cc1ccc(-c2nn(-c3ccccc3)cc2C=O)o1	-5	-5	x	2.0	2.0	-2.5	-2
COc1cccc(NC(=O)CCNC(=O)N2CC(=O)Nc3ccccc32)c1	-1	-3	x	-0.6	7.1	2.3	-4
CC(C)(C)NC(=O)NC(=O)CN1CCN(c2ncc(C(F)(F)F)cc2Cl)CC1	0	0	-5%	2.1	-2.1	-1.8	6
COc1cccc(CNS(=O)(=O)/C=C/c2ccc(OC)c(OC)c2)c1	-2	2	-2%	6.0	-2.0	-5.9	1
Cc1cc(C)n(CC(O)Cn2c(C)c(C)c3ccccc32)n1 (stereo not given)	31	-4	6%	13	-2.0	6.9	-8
O=C(OCc1nc2ccc(Cl)cc2n1CCO)c1ccc(O)cc1	10	-5	x	-5.4	-0.6	0.0	-29
CCC1(c2ccccc2)NC(=O)N(CC(=O)NC2(C#N)CCCCC2)C1=O (stereo not given)	1	-6	-3%	-1.7	7.8	-9.1	-3
CCC(OC(=O)c1cc2sccc2n1C)C(=O)NCC1CCCO1 (stereo not given)	-13	-6	2%	4.7	x	-8.5	x
O=c1c(Cl)c(N2CCN(S(=O)(=O)c3ccc(F)cc3)CC2)cnn1-c1cccc(Cl)c1	-11	9	6%	-1.2	-2.3	1.2	6
